Screens (PubChem BioAssay)
Vaccinia stage: blocks a specific stage of Vaccinia orthopoxvirus infection; Vaccinia-infected cells, mCherry/Venus stage reporter fluorescence; stronger effect = lower value; some inactives read as strong as hits; activity change (mCherry), % (concentration not given with the values); 89,000 compounds, 0.01% hits; AID 1053133;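 active = mCherry past -33% and 40 or more points under the early reporter, replicates agreeing; inconclusive = past -33% without that gap or agreement; tested in A549 cells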;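 note: scaled between vehicle wells and reference inhibitor wells; 23 nL library stock went into each well; one replicate is shown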
Vaccinia stage Venus: second read-out of Vaccinia stage, no call of its own (marks repeat the call); activity change (Venus), %; measured here: Venus reporter, other viral stage;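 negative = less Venus signal; first of two replicates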
* = called active by the depositor; ? = inconclusive; nt = not tested or not shown; & = joins results of further samples.

SMILES	Vaccinia stage	Vaccinia stage Venus
O=C(Nc1ccc(F)cc1)N1CCCCN2[C@@H](CO)[C@@H](c3ccc(C#Cc4ccccc4)cc3)[C@@H]2C1	?	nt
C[C@@H]1CCCCO[C@H](CN(C)S(=O)(=O)c2ccccc2)[C@H](C)CN([C@H](C)CO)C(=O)c2cc(NC(=O)Nc3ccccc3)ccc2O1	6	-1
C[C@H]1CN([C@@H](C)CO)C(=O)c2cccc(NC(=O)Nc3ccc(F)cc3)c2O[C@@H]1CN(C)S(=O)(=O)c1ccccc1	-9	-3
C[C@@H]1CCCCO[C@@H](CN(C)Cc2ccc(C(=O)O)cc2)[C@@H](C)CN([C@H](C)CO)C(=O)c2cc(NC(=O)C3CCCCC3)ccc2O1	27	13
C[C@@H]1CCCCO[C@@H](CN(C)S(C)(=O)=O)[C@@H](C)CN([C@H](C)CO)C(=O)c2cc(NC(=O)Nc3ccc(C(F)(F)F)cc3)ccc2O1	52	27
O=C(CN1CCOCC1)N1CC(=O)N2[C@@H](CO)[C@H](c3ccc(-c4cccc(F)c4)cc3)[C@@H]2C1	12	6
COCc1cn(CC[C@@H]2CC[C@@H](NC(=O)c3ccccc3)[C@@H](CO)O2)nn1	22	8
C[C@@H]1CN([C@@H](C)CO)C(=O)c2cc(NC(=O)Cc3cn(C)c4ccccc34)ccc2O[C@H]1CN(C)Cc1ccc(C(F)(F)F)cc1	-15	-13
COc1ccc(S(=O)(=O)N(C)C[C@H]2Oc3ccc(NS(=O)(=O)c4cccs4)cc3C(=O)N([C@@H](C)CO)C[C@H]2C)cc1	4	9
CC(C)C#Cc1cnc2c(c1)C(=O)N([C@H](C)CO)C[C@H](C)[C@@H](CN(C)C(=O)Cc1ccncc1)O2	-1	4
COc1ccc(S(=O)(=O)N(C)C[C@@H]2OCc3ccccc3-c3c(n(C)c4ccccc34)C(=O)N([C@H](C)CO)C[C@H]2C)cc1	?	nt
Cc1nn(C)cc1NC(=O)C[C@H]1CC[C@@H]2[C@H](COc3ccc(NC(=O)NC(C)C)cc3C(=O)N2C)O1	-2	3
C[C@@H]1CN([C@H](C)CO)C(=O)c2cc(/C=C/c3ccccc3)cnc2O[C@@H]1CN(C)Cc1cccc(C(=O)O)c1	23	12
Cc1noc(C)c1NC(=O)N(C)C[C@@H]1Oc2c(NC(=O)c3ccc(-c4nccs4)cc3)cccc2C(=O)N([C@H](C)CO)C[C@@H]1C	-1	-15
COc1ccccc1NC(=O)Nc1ccc2c(c1)OC[C@H](C)NC[C@H](C)[C@@H](OC)CN(C)C2=O	?	nt
Cc1noc(C)c1S(=O)(=O)Nc1ccc2c(c1)CC(=O)N([C@H](C)CO)C[C@@H](C)[C@H](CN(C)Cc1ccc(C(=O)Nc3ccccc3N)cc1)O2	6	-4
O=C(C[C@@H]1CC[C@H]2[C@@H](COC[C@H](O)CN2C(=O)Nc2ccc(Cl)c(Cl)c2)O1)NC1CCC1	-25	-19
C[C@@H]1CN([C@@H](C)CO)C(=O)c2cc(NS(C)(=O)=O)ccc2O[C@@H](C)CCCCO[C@@H]1CN(C)S(=O)(=O)c1ccc(Cl)cc1	18	16
C[C@@H]1CN([C@H](C)CO)C(=O)CCCn2nncc2CO[C@@H]1CN(C)S(=O)(=O)c1ccccc1F	6	14
Cc1noc(C)c1NC(=O)N(C)C[C@@H]1Oc2ccc(NC(=O)Nc3ccc4c(c3)OCO4)cc2CC(=O)N([C@H](C)CO)C[C@@H]1C	8	12
Cc1noc(C)c1S(=O)(=O)Nc1ccc2c(c1)CC(=O)N([C@H](C)CO)C[C@@H](C)[C@H](CN(C)Cc1ccccc1)O2	3	4
CC(=O)N1[C@@H]2c3ccc(/C=C/c4ccccc4)c(=O)n3C[C@H]1[C@H](CO)[C@H]2C(=O)N1CCOCC1	-4	-6
C[C@H]1CCCCO[C@@H](CN(C)Cc2ccncc2)[C@@H](C)CN([C@@H](C)CO)C(=O)c2cc(NS(C)(=O)=O)ccc2O1	5	15
CN(C)C(=O)c1ccc(-c2ccc3c(c2)[C@H]2[C@H](CCN2C(=O)C2CCC2)[C@H](CO)N3C)cc1	-18	-9
Cc1c(NC(=O)CC#N)c(=O)n(-c2ccccc2)n1C	12	3
CO[C@@H]1CN(C)C(=O)c2cc(NC(=O)NC3CCCC3)ccc2OC[C@H](C)NC[C@@H]1C	-5	7
CN(C)C(=O)[C@@H]1[C@@H](CO)[C@@H]2Cn3c(ccc(-c4ccncc4)c3=O)[C@H]1N2CC1CC1	2	6
Cc1noc(C)c1NC(=O)N(C)C[C@H]1Oc2ccc(NC(=O)Nc3ccc4c(c3)OCO4)cc2C(=O)N([C@H](C)CO)C[C@H]1C	12	5
COc1ccc2c3c([nH]c2c1)[C@@H](CO)N(S(=O)(=O)c1ccccc1)CC31CCN(C)CC1	-27	-17
C[C@@H]1CCCCO[C@H](CN(C)S(=O)(=O)c2cccs2)[C@@H](C)CN([C@@H](C)CO)C(=O)c2cc(NS(=O)(=O)c3cccs3)ccc2O1	-25	-18
Cc1noc(C)c1NC(=O)N(C)C[C@H]1OCCCC[C@H](C)Oc2ccc(NC(=O)Nc3ccc(F)cc3)cc2C(=O)N([C@@H](C)CO)C[C@@H]1C	18	17
C[C@@H]1CN([C@H](C)CO)C(=O)CCCn2nncc2CO[C@@H]1CN(C)Cc1ccc(Oc2ccccc2)cc1	?	nt
C[C@H]1CN([C@@H](C)CO)C(=O)c2cc(NS(=O)(=O)c3cccs3)ccc2O[C@H]1CN(C)C	8	6
O=C(c1cccc(F)c1)N1CC[C@@H]2[C@@H](CO)Nc3ccc(-c4ccc(F)cc4)cc3[C@@H]21	?	nt
Cc1ccc(S(=O)(=O)Nc2ccc3c(c2)CC(=O)N([C@@H](C)CO)C[C@H](C)[C@@H](CN(C)S(=O)(=O)c2cccs2)O3)cc1	4	-8
COC(=O)[C@H]1[C@H](CO)[C@H]2Cn3c(ccc(-c4cccc(F)c4)c3=O)[C@@H]1N2Cc1ccncc1	13	19
O=C(C[C@H]1CC[C@@H](NC(=O)Nc2ccccc2)[C@@H](CO)O1)NCc1cccc(F)c1	10	14
CCS(=O)(=O)N1CC2(CN(Cc3ccc(OC)cc3)[C@@H](CO)c3c2c2ccc(OC)cc2n3C)C1	-6	1
C[C@@H]1CN([C@H](C)CO)C(=O)c2cc(NS(=O)(=O)c3cccs3)ccc2O[C@@H](C)CCCCO[C@@H]1CN(C)Cc1ccc(C(F)(F)F)cc1	-25	-15
O=C(C1CCCC1)N1C[C@H]2[C@@H](c3ccccc31)[C@@H](CO)N2C(=O)c1cccnc1	4	-4
Cn1cnc(CCNC(=O)C[C@@H]2CC[C@@H]3[C@H](COC[C@H](O)CN3C(=O)C3CCCC3)O2)c1	8	2
Cc1noc(C)c1S(=O)(=O)N(C)C[C@H]1OCCCC[C@@H](C)Oc2ccc(NC(=O)NC(C)C)cc2C(=O)N([C@@H](C)CO)C[C@H]1C	3	0
C[C@H]1CN([C@@H](C)CO)C(=O)Cc2cc(NC(=O)C3CC3)ccc2O[C@@H]1CN(C)S(=O)(=O)c1ccc(Cl)cc1	3	7
COc1ccc(S(=O)(=O)N(C)C[C@H]2Oc3c(NS(=O)(=O)c4c(C)noc4C)cccc3C(=O)N([C@H](C)CO)C[C@H]2C)cc1	-8	-9
CC(C)[C@H]1COCc2cn(nn2)CC[C@H](Cc2ccccc2)C(=O)N1	8	1
C[C@@H]1CN([C@H](C)CO)C(=O)Cc2cc(NS(=O)(=O)c3cn(C)cn3)ccc2O[C@@H]1CN(C)Cc1ccc(Cl)c(Cl)c1	-5	-2
COC(=O)C[C@@H]1C[C@H]2c3cc(NS(=O)(=O)c4ccccc4)ccc3O[C@H]2[C@@H](CO)O1	6	9
C[C@H]1CN([C@@H](C)CO)C(=O)Cc2cc(NC(=O)C3CC3)ccc2O[C@H]1CN(C)C(=O)NC1CCCCC1	20	17
C[C@H](CO)N1C[C@H](C)[C@H](CN(C)Cc2ccc(C(F)(F)F)cc2)Oc2c(NC(=O)Nc3ccc4c(c3)OCO4)cccc2C1=O	?	nt
C[C@H]1CCCCO[C@@H](CN(C)S(=O)(=O)c2ccc(F)cc2)[C@@H](C)CN([C@@H](C)CO)C(=O)c2cc(NC(=O)Nc3ccc4c(c3)OCO4)ccc2O1	-1	-4
CC(C)NC(=O)N(C)C[C@@H]1Oc2ccc(NC(=O)C3CC3)cc2C(=O)N([C@@H](C)CO)C[C@H]1C	21	14
Cc1noc(C)c1NC(=O)Nc1ccc2c(c1)C(=O)N([C@H](C)CO)C[C@H](C)[C@H](CN(C)C(=O)NC1CCCCC1)OCCCC[C@@H](C)O2	13	4
O=C(C1CCCC1)N1CC2(C1)[C@H](c1ccccc1)[C@@H](CO)N2Cc1ccccc1F	1	9
COc1ccc(NC(=O)N(C)C[C@H]2Oc3c(NC(=O)Nc4ccc5c(c4)OCO5)cccc3C(=O)N([C@H](C)CO)C[C@H]2C)cc1	7	4
CCN1[C@@H]2c3ccc(-c4ccc(C(=O)N(C)C)cc4)c(=O)n3C[C@@H]2[C@@H](CO)[C@@H]1C(=O)NCCOC	13	9
C[C@@H]1CCCCO[C@@H](CN(C)C(=O)Nc2ccccc2)[C@H](C)CN([C@H](C)CO)C(=O)c2cc(NC(=O)Nc3cccc4ccccc34)ccc2O1	-1	8
O=C(C[C@@H]1CC[C@@H](NC(=O)c2cccnc2)[C@H](CO)O1)NCCN1CCCCC1	-3	1
C[C@@H]1CN([C@@H](C)CO)C(=O)c2cccc(NC(=O)Nc3ccccc3)c2O[C@@H]1CN(C)Cc1ccc(Oc2ccccc2)cc1	-28	-14
C[C@@H]1CN([C@H](C)CO)C(=O)Cc2cc(NC(=O)CCN3CCOCC3)ccc2O[C@@H]1CN(C)S(=O)(=O)c1cn(C)cn1	17	6
CO[C@@H]1CN(C)C(=O)c2ccc(NC(=O)C3CC3)cc2OC[C@@H](C)NC[C@@H]1C	-2	-1
Next compounds follow:
SMILES	Vaccinia stage	Vaccinia stage Venus
C[C@H]1CN([C@@H](C)CO)C(=O)Cc2cc(NC(=O)Nc3ccccc3)ccc2O[C@H]1CN(C)C(=O)NC1CCCCC1	11	8
CO[C@H]1CN(C)C(=O)c2cc(NC(=O)c3cnccn3)ccc2OC[C@H](C)NC[C@H]1C	21	12
COCCNC(=O)C[C@H]1C[C@H]2c3cc(NC(=O)c4ccc5c(c4)OCO5)ccc3O[C@H]2[C@H](CO)O1	0	2
C[C@H](CO)N1C[C@H](C)[C@H](CN(C)S(=O)(=O)c2ccc(Cl)cc2)OCCCC[C@H](C)Oc2ccc(NS(C)(=O)=O)cc2C1=O	?	nt
Cc1cccc(S(=O)(=O)N2[C@@H]3CNC[C@H]2C3c2ccc(-c3cccnc3)cc2)c1 (stereo partly drawn)	-31&9	-24&-1
CNC[C@H]1Oc2ccc(NS(=O)(=O)c3cn(C)cn3)cc2C(=O)N([C@@H](C)CO)C[C@H]1C	5	9
O=C(C[C@H]1CC[C@H](NC(=O)c2cnccn2)[C@@H](CO)O1)NCc1ccccc1F	-2	10
CN(C)CC(=O)N1CC2(C1)[C@@H](c1ccccc1)[C@@H](CO)N2S(=O)(=O)c1ccccc1	7	13
COc1ccc2c3c([nH]c2c1)[C@H](CO)N(C(=O)Nc1cccc(F)c1)CC31CCN(CC2CC2)CC1	?	nt
C[C@H](O)C#Cc1cnc2c(c1)C(=O)N([C@H](C)CO)C[C@H](C)[C@@H](CN(C)Cc1ccc(-c3ccccc3)cc1)O2	?	nt
CC(C)C#Cc1cnc2c(c1)C(=O)N([C@H](C)CO)C[C@@H](C)[C@@H](CN(C)C(=O)Nc1cccc(F)c1)O2	7	-3
Cc1ccccc1S(=O)(=O)N1CCCCN2[C@@H](CO)[C@@H](c3ccc(-c4cccc(F)c4)cc3)[C@@H]2C1	?	nt
COc1ccc2c3c(n(C)c2c1)[C@@H](CO)N(C(=O)c1ccc(F)cc1)CC31CCN(CC2CCOCC2)CC1	-3	-4
C[C@@H]1CN([C@@H](C)CO)C(=O)c2cc(NS(=O)(=O)c3ccc(F)cc3)ccc2O[C@@H]1CN(C)CC1CCCCC1	4	-5
C[C@@H]1CCCCO[C@@H](CN(C)S(=O)(=O)c2ccc(Cl)cc2)[C@H](C)CN([C@@H](C)CO)C(=O)c2cc(NC(=O)Nc3ccccc3)ccc2O1	-6	11
COc1ccc2c3c(n(C)c2c1)[C@H](CO)N(C(=O)CN(C)C)CC31CCN(C(=O)NC(C)C)CC1	-2	-6
CCCC#Cc1ccc([C@@H]2[C@H](CO)N3C(=O)CN(C(=O)c4ccccc4)C[C@@H]23)cc1	-13	-17
CCC(=O)N1[C@@H]2CN(S(=O)(=O)c3ccc(F)cc3)c3ccccc3[C@@H]2[C@@H]1CO	10	10
O=C(C[C@@H]1C=C[C@H](NC(=O)c2ccccc2)[C@H](CO)O1)Nc1ccc(-c2ccccc2)cc1	?	nt

Random excerpt: seven records from the list.
SMILES	Vaccinia stage	Vaccinia stage Venus
CO[C@@H]1CN(C)C(=O)c2cc(NC(=O)NC3CCCC3)ccc2OC[C@H](C)NC[C@@H]1C	-5	7
CNC[C@H]1Oc2ccc(NS(=O)(=O)c3cn(C)cn3)cc2C(=O)N([C@@H](C)CO)C[C@H]1C	5	9
C[C@@H]1CCCCO[C@H](CN(C)S(=O)(=O)c2cccs2)[C@@H](C)CN([C@@H](C)CO)C(=O)c2cc(NS(=O)(=O)c3cccs3)ccc2O1	-25	-18
Cc1noc(C)c1NC(=O)N(C)C[C@@H]1Oc2ccc(NC(=O)Nc3ccc4c(c3)OCO4)cc2CC(=O)N([C@H](C)CO)C[C@@H]1C	8	12
CO[C@@H]1CN(C)C(=O)c2ccc(NC(=O)C3CC3)cc2OC[C@@H](C)NC[C@@H]1C	-2	-1
COc1ccccc1NC(=O)Nc1ccc2c(c1)OC[C@H](C)NC[C@H](C)[C@@H](OC)CN(C)C2=O	?	nt
CO[C@H]1CN(C)C(=O)c2cc(NC(=O)c3cnccn3)ccc2OC[C@H](C)NC[C@H]1C	21	12

Only part of the results is shown (hit frequency here may not be typical).
